Beta apoptosis = beta cell apoptosis inhibition | INS-1E cytokine-induced death, ATP luminescence, 48 h; percent of positive-control rescue, neutral wells zero | 300,000 tested, 0.8% active | protection from apoptosis, % (test concentration not listed);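 active = all replicates at 75% or more, or half of them and the mean; inconclusive = half reach 75% but not the mean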;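 note: 0% = cytokine-treated negative control wells and 100% = positive control rescue; higher means more ATP so stronger rescue from cytokine killing; wells of about 40 µL received 100 nL stock; the first replicate is given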
ALR H2O2 inh = human ALR oxidase inhibition via reduced H2O2 | P55789 | purified ALR, DTT oxidation, H2O2 HRP-luminol luminescence | inhibition, % (concentration not given with the values) | 290,000 tested, 3.8% active;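 active = mean and each replicate at 75% or more; inconclusive = only one of the two met; inactive = neither met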;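 note: stock transfer was 7.5 nL into about 7.5 µL; 0% = neutral wells and 100% = wells with inactivated enzyme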
Target sequence (P55789 whole entry, looked up): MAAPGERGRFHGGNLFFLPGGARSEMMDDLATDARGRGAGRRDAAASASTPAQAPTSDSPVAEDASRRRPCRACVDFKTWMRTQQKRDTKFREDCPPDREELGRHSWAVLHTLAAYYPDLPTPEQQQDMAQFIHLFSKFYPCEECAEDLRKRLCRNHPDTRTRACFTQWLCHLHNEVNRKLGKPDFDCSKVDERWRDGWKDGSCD
rRNA inh HTS = inhibits bacterial ribosomal RNA function over humanized ribosomes; E. coli WT GFP vs humanized-ribosome RFP mutants, fluorescence, 24 h; stronger effect = lower value; DMSO median 0, no signal -100; GFP signal change (wild-type ribosome), % (test concentration not listed); 350,000 tested, 1.6% active;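 active = significant combined selectivity score with lowered wild-type GFP, culture density cut under 30%, mutant RFP and density less affected; inactive = any of these conditions unmet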; note: one replicate is shown; some compounds called inactive have numbers as strong as hits
T cruzi inh = blocks replication of Trypanosoma cruzi; T. cruzi beta-gal in NIH3T3, luminescence, 90 h; 300,000 tested, 1.4% active; inhibition, % (no concentration beside the values);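 active = mean inhibition across valid replicates above about 55%, limit read from the data; inconclusive = mean below that limit but half or more replicates reach it; inactive = mean below it, under half of replicates reach it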;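 note: signal also drops with host cell toxicity which is not excluded here; 0% = plate median of DMSO wells and 100% = zero luminescence signal; higher percent means less beta-gal luminescence so fewer parasites; stock transfer was 50 nL into about 50 µL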
Calb FLC = C. albicans growth modulation with fluconazole. C. albicans CaCi-2 (fluconazole-resistant clinical isolate) + fluconazole, Alamar Blue growth, 48 h. 300,000 tested, 0.57% active. growth inhibition, % (concentration not given with the values);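 active = most replicates above 75%; inconclusive = exactly half above 75%; inactive = most below 75%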;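 note: all wells also contain fluconazole at 8 µg/ml as a sub-toxic cotreatment; 0% = median of DMSO wells and 100% = median of geldanamycin control wells; wells of about 8 µL received 7.5 nL stock; the first replicate is given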
LANA-H2B inh = blocks KSHV LANA binding to histone H2A/H2B | Q9QR71 | cell-free LANA-H2A/H2B peptide, fluorescence polarization | inhibition, % (no concentration beside the values) | 320,000 tested, 0.6% active; in the data active = inhibition mostly above about 10%, no sharp cut-off; inactive = mostly below about 6.7%;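 note: stock transfer was 7.5 nL into about 10 µL; 0% = median of vehicle wells and 100% = median of positive control wells; one replicate is shown; the record names a cut of 25% in any replicate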
Beta2AR agonist = agonists of human beta-2 adrenergic receptor inducing internalization; Am2.2-beta2AR cells, FAP receptor internalization, flow cytometry; reference of the scale not given here; response, % (test concentration not listed); 340,000 tested, 0.43% active; AID 504454;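 active = response above a set limit, near 3 SD of response in nonfluorescent compounds, cut at about 42% in these data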;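 note: stock transfer was 100 nL into about 11 µL; a reference agonist was the positive control; negative values mostly stem from fluorescent compounds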
Target sequence (P07550 whole entry, looked up): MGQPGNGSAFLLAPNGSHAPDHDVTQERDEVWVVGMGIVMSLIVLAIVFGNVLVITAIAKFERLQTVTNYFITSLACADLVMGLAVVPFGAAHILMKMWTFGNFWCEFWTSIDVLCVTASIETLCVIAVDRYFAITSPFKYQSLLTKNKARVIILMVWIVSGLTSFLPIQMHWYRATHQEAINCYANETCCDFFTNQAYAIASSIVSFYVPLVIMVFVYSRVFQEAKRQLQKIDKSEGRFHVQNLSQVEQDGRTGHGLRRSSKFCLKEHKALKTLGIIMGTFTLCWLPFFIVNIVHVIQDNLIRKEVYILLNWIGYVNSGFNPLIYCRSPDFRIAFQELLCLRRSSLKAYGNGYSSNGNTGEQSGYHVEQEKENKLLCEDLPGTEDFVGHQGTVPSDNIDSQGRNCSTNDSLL
Bfl-1 A1 inh = inhibitors of the anti-apoptotic protein A1, read as caspase activation; 330,000 tested, 0.066% active; AID 2462; MEF A1-2A-BIM cells, Caspase-Glo 3/7 luminescence, 3 h; percent of clofoctol response, vehicle zero; caspase activation, % (no concentration beside the values);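 active = over half of replicate activation scores above 10%, or exactly half above 10 with the replicate mean above 10; inconclusive = replicate mean below 10 yet half the replicates above 10; inactive = over half of replicates below 10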;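 note: wells of about 30 µL received 50 nL stock; many hits fall short of the cut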
rRNA inh HTS OD600 = second read-out of rRNA inh HTS, no call of its own (marks repeat the call); OD600 change, %; measured here: OD600 growth;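 optical density of the mix in the first replicate; 0 = DMSO median and -100 = no signal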
rRNA inh HTS RFP = recorded beside rRNA inh HTS, whose call it bears; RFP signal change, %; measured here: RFP humanized mutant strains;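 first replicate; 0 = DMSO median and -100 = no signal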
* hit, by the source's call; ? = inconclusive; · = not tested or not shown. The list is partial. The share of hits here may be higher or lower than overall.

SMILES	Beta apoptosis	ALR H2O2 inh	rRNA inh HTS	rRNA inh HTS OD600	rRNA inh HTS RFP	T cruzi inh	Calb FLC	LANA-H2B inh	Beta2AR agonist	Bfl-1 A1 inh
CCCN(C(=O)c1cn(-c2ccccc2)nc1-c1ccc(OC)cc1)C1CCS(=O)(=O)C1 (configuration not stated)	0	·	-4	-7	2.8	-4	1	·	-19	0.4
CCCOc1ccc(C2C(C(=O)c3ccc(C)o3)=C(O)C(=O)N2Cc2cccnc2)cc1 (configuration not stated)	9	0	·	·	·	1	5	3.6	·	2.9
O=C(CN1C(=O)NC2(CCCCCCC2)C1=O)NCc1ccc(F)cc1	-19	·	1	-2	0.2	·	·	-1.1	-13	-0.1
COC(=O)[C@@]1(Cc2ccc(OC)cc2)[C@H]2c3cc(C(=O)N(C)C)n(Cc4c(CO)[nH]cc(C)c4=O)c3C[C@H]2CN1C(=O)c1ccccc1	0	31	7	8	-1.7	-2	-1	1.3	-5	0.0
COc1ccc(/C=N/NC(=O)CO/N=C(\C)c2cccs2)cc1	-6	3	·	·	·	-11	3	-2.8	6	0.1
O=C1CSC(=Nc2cccc(Cl)c2Cl)N1Cc1cccnc1	0	-4	-41	-50	-12	7	3	-5.2	-16	1.0
COc1ccccc1OCCSc1nnnn1-c1ccc(C)cc1	·	-15	-8	-37	-2.7	15	0	-4.0	2	-1.1
COCCCNC(=O)c1ccccc1N(Cc1ccccc1)S(=O)(=O)c1ccc(OC)cc1	·	0	-1	-4	-0.1	3	7	-0.2	-8	-0.8
Cc1ccc(P(=O)(CC(=O)O)c2ccc(C)cc2)cc1	-3	-5	·	·	·	-6	28	-0.3	-1	-0.9
O=C(c1cccc(Cl)c1)N(Cc1ccco1)C1CCS(=O)(=O)C1 (configuration not stated)	-8	-21	4	9	0.6	2	2	-5.0	1	-0.5
COc1ccc(-c2cc(-c3nnc(-c4ccncc4)o3)c3ccccc3n2)cc1	6	-12	·	·	·	24	8	1.8	13	0.4
COc1ccc(-c2cccc(C(=O)NCC(=O)O)c2)cc1	1	-2	7	2	-6.6	3	-2	0.2	-2	-0.6
Cc1c(/C(O)=C2/C(=O)C(=O)N(CCN3CCOCC3)C2c2cccs2)cnn1-c1ccccc1 (configuration not stated)	-4	?	·	·	·	7	0	1.2	1	-2.8
CC(C)NC(=O)CN(CCc1ccccc1)S(C)(=O)=O	-3	1	·	·	·	-5	5	3.1	10	0.2
CCOc1ccc(NC(=O)CCCCCN2C(=O)[C@@H]3Cc4ccccc4CN3C2=O)cc1	0	2	-1	-3	-1.4	7	0	-0.5	-9	-0.5
Clc1cccc(CSc2nnc(-c3ccccn3)n2Cc2ccco2)c1	-5	26	·	·	·	15	-6	1.7	-1	1.2
CC(C)CN(C(=O)Cn1c(Cl)nc2c1c(=O)n(C)c(=O)n2C)C1CCS(=O)(=O)C1 (configuration not stated)	-4	-4	13	5	0.8	-14	-6	0.2	-6	-0.7
COc1ccc(NC(=O)NCc2ccccn2)cc1	-8	-7	·	·	·	0	-2	0.3	4	0.9
CC1(C)CC(NC(=O)COc2ccc3ccc(=O)oc3c2)CC(C)(C)N1	3	-1	-2	4	2.2	-7	1	0.5	4	1.3
CCN(CC)CCCNc1oc(-c2ccccc2[N+](=O)[O-])nc1C#N	-5	-6	10	3	0.2	-5	-3	1.6	-1	0.7
COc1ccc2ccccc2c1CN1CCN(C(=O)c2ccccc2)CC1	·	-11	·	·	·	·	8	-0.6	7	0.5
O=C(CCN1C(=O)/C(=C/c2ccccc2Cl)SC1=S)Nc1cccnc1	-9	-1	0	7	2.7	-15	0	7.2	-8	0.1
CC1CN(c2ccc([N+](=O)[O-])c(NCCOc3ccccc3)c2)CC(C)N1 (configuration not stated)	1	-27	6	17	-0.6	42	-1	1.3	11	0.4
O=C(Nc1ccc(C2=CN(Cc3ccccc3)CCC2=O)cc1)OCc1ccccc1	7	-12	5	12	2.5	·	·	2.3	4	-1.0
CCOc1ccc(NC(=O)CSc2nnnn2CC(=O)O)cc1	-6	-6	·	·	·	-8	-5	0.7	-3	-0.1
SMILES	Beta apoptosis	ALR H2O2 inh	rRNA inh HTS	rRNA inh HTS OD600	rRNA inh HTS RFP	T cruzi inh	Calb FLC	LANA-H2B inh	Beta2AR agonist	Bfl-1 A1 inh
COc1ccc(C(C)(C)C)cc1NC(=O)c1ccc[n+]([O-])c1	1	·	3	5	0.2	-2	6	-2.5	1	0.0
COc1cccc(CNC(=O)c2ccc(CS(=O)(=O)Cc3ccc(C)cc3)o2)c1	-11	·	-2	15	-1.5	4	-1	-1.1	-8	0.1
CCOC(=O)C1CCN(Cc2ccccn2)CC1	-3	-4	·	·	·	-16	-7	0.3	·	-0.2
COCCNC(=S)NN=C1CCC(c2ccccc2)CC1 (configuration not stated)	3	5	7	-8	-2.0	-6	-10	4.1	-2	-0.6
O=c1c2ccccc2c2ccccc2c(=O)n1CC1CCCO1 (configuration not stated)	3	99*	·	·	·	6	-13	1.4	-1	-0.3
O=C(Cn1c(=O)oc2ccccc21)Nc1ccc2c(c1)OCCO2	-9	-3	·	·	·	-22	1	3.9	1	1.3
O=C(OCC(=O)c1ccc[nH]1)c1ccccc1	-4	-7	0	-3	-4.2	-20	-8	0.9	-8	-2.6
O=C(CCS(=O)(=O)c1ccc(Br)cc1)NCCC1=CCCCC1	-11	-7	15	12	2.1	8	-6	8.3	-9	-0.3
CC1CCCN(c2ccc(C(=O)Nc3cccnc3)cc2[N+](=O)[O-])C1 (configuration not stated)	0	11	-58	-78	-21	?	4	0.2	-3	-0.7
Cc1sc(NC(=O)CCS(=O)(=O)c2ccccc2)c(C#N)c1C	-8	·	0	-3	-1.3	-9	23	·	5	-0.4
CCOC(=O)C(=O)c1csc(NC(=O)CCSc2ccc(C)cc2)n1	-2	-16	16	5	-1.0	-9	-7	-2.8	-1	0.3
COc1ccc(C(C(=O)NCC2CCCO2)N(C(=O)CNC(=O)c2cccs2)c2ccc(C)cc2)cc1OC (configuration not stated)	-6	-3	4	-2	1.5	-6	24	3.6	-19	0.3
COc1ccc(S(=O)(=O)N(CC(=O)N2CCN(C)CC2)c2ccccc2)cc1OC	1	0	·	·	·	-5	-1	6.2	1	0.0
O=C(CN1CCOCC1)N1CCc2ccccc2C(c2ccccc2)C1 (configuration not stated)	-2	0	·	·	·	1	-2	-0.9	2	2.4
O=C(CCn1cnc2ncccc2c1=O)N1CCN(c2cccc(Cl)c2)CC1	0	36	-17	-3	-2.7	-9	-4	1.5	2	-0.6
O=C(NCc1ccc(F)cc1)C(c1ccccc1)c1ccccc1	-5	-7	3	11	0.4	-6	-2	6.5	2	-1.6
CCc1ccc(/C(C)=N/NC(=O)CNC(=O)/C=C/c2ccccc2OC)cc1	2	1	-4	-2	0.9	-3	-6	4.8	2	0.0
CN(c1ccccc1)S(=O)(=O)c1cccc(NC(=O)COC(=O)C2CCCCC2)c1	4	-4	-7	-12	-7.5	-12	1	3.4	5	0.5
Cc1ccc(C)c(CSc2nnc([C@@H]3CCCN3)o2)c1	·	-9	4	3	3.7	10	0	0.5	7	0.4
CCOCCn1c(CN(Cc2ccccc2)Cc2ccccc2)nc2c1c(=O)n(C)c(=O)n2C	6	-5	5	-32	2.8	39	5	-1.4	11	-0.3
CCNc1nc(NCC)nc(N(C)/N=C/c2ccco2)n1	-3	1	12	10	1.2	-33	5	0.6	-8	2.9
CC1CCN(Cc2c(C(=O)O)nnn2-c2nonc2N)CC1	3	·	10	1	-3.3	-4	-9	0.4	13	-0.6
O=C(Nc1ccccc1)c1ccsc1	-3	3	·	·	·	-8	1	2.6	3	-1.5
CN1CCN(c2nc3c(c(=O)[nH]c(=O)n3C)n2CCSc2nc3ccccc3s2)CC1	-2	-26	9	14	-1.3	-5	-2	-0.5	-13	0.4
S=C(NCCN1CCCCC1)Nc1ccc(Br)cc1	-11	5	9	7	-1.0	14	3	-1.1	7	0.1

The last two entries of the section above open the next one:
SMILES	Beta apoptosis	ALR H2O2 inh	rRNA inh HTS	rRNA inh HTS OD600	rRNA inh HTS RFP	T cruzi inh	Calb FLC	LANA-H2B inh	Beta2AR agonist	Bfl-1 A1 inh
CN1CCN(c2nc3c(c(=O)[nH]c(=O)n3C)n2CCSc2nc3ccccc3s2)CC1	-2	-26	9	14	-1.3	-5	-2	-0.5	-13	0.4
S=C(NCCN1CCCCC1)Nc1ccc(Br)cc1	-11	5	9	7	-1.0	14	3	-1.1	7	0.1
CC(C)[n+]1ccn(C2=C([O-])c3ccccc3C(=O)/C2=N\S(=O)(=O)c2ccccc2)c1	54	-24	·	·	·	-2	26	5.0	7	0.5
C/C(=N\NC(=O)c1cccnc1)c1ccccc1	-3	-8	15	17	3.5	-14	-1	-1.3	-11	-0.8
O=C(c1ccccc1F)N1CCCc2ccccc21	-9	0	0	-3	3.9	-5	-13	-0.4	-5	1.3
CC1(C)CC(=O)C=C(C(=O)N2CCCC(C(=O)c3cccc(Cl)c3)C2)O1 (configuration not stated)	-2	0	-2	0	0.1	19	-14	-1.6	3	0.4
CCOc1ccc2nc(SCCNS(=O)(=O)c3ccccc3)sc2c1	8	-4	-1	-5	2.9	31	0	-1.8	61*	-0.4
CCOC(=O)C1=C(C)N(C)C(C)=C(C(=O)OCC)C1c1cccnc1	2	8	·	·	·	0	-2	0.0	-5	0.4
N#CC(c1ccc(Cl)cc1)c1ccc(Cl)nn1 (configuration not stated)	-2	6	·	·	·	2	1	-5.3	2	0.1
COc1ccc(S(=O)(=O)N(C)C)cc1NC(=O)Cc1c[nH]c2ccccc12	0	-19	-3	2	-0.5	-11	14	1.7	2	0.2
Cc1nn(-c2ccc(F)cc2)c(Cl)c1/C=C/C(=O)OCC(=O)Nc1c(F)c(F)c(F)c(F)c1F	-5	-4	3	2	-0.9	-20	-5	4.8	3	0.5
COc1ccc(OC)c(C2=NO[C@@H]3C(=O)N(c4cc(Cl)ccc4OC)C(=O)[C@H]23)c1	-1	·	·	·	·	1	2	-3.5	2	-1.3
O=C(Nc1nnc(C2CC2)s1)C1Cc2ccccc2CN1S(=O)(=O)c1cccs1 (configuration not stated)	·	-8	·	·	·	-4	19	-1.3	6	0.6
O=C(CCNS(=O)(=O)c1ccc(Br)cc1)NC1CCN(Cc2ccccc2)CC1	4	0	6	-5	-2.6	41	-4	-0.9	-3	-0.5
Cc1ccccc1S(=O)(=O)c1cc2ccccc2nc1N	-5	-28	-30*	7.7*	2.0*	0	-2	-3.3	-2	1.0
CCCC(=O)Nc1ccc(NC(=O)C2CC2)cn1	2	-12	·	·	·	-13	-1	0.2	3	-0.9
COCCNC(=O)C(C)N(c1ccc(Oc2ccccc2)cc1)S(C)(=O)=O (configuration not stated)	-2	-8	·	·	·	-2	-1	1.6	-1	-0.5
COc1ccc(C2C=C(c3ccc(Br)cc3)Nc3nc(N4C(=O)CCC4=O)nn32)cc1 (configuration not stated)	-4	10	·	·	·	5	4	10	1	0.2
CCCSc1ccc([C@@H]2[C@H]3C(=O)N(CC)C(=O)[C@H]3[C@]3(C(=O)OC)CCCCN23)cc1	-1	2	1	2	-4.8	22	6	-4.7	-2	0.8

Bioassay records from PubChem.
